UCH37 inh = blocks the human deubiquitinase UCH37; Q9Y5K5; purified proteasome/UCH37, Ub-AMC cleavage fluorescence; inhibition, % (test concentration not listed); actives 0.33% (n = 330,000); AID 588478;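 active = mean of two replicates above 20%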;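 note: 0% = compound-free wells with enzyme and 100% = wells lacking proteasome; stock transfer was 100 nL into about 20 µL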
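Test system – human UCH37 enzyme supplied as purified proteasome complex · Incubation – 30 min preincubation with enzyme, 25 min cleavage at room temperature · Detection – AMC fluorescence from Ub-AMC cleavage, excitation 355 nm, emission 460 nm · Benchmarks – no-proteasome wells (full inhibition) and compound-free wells (no inhibition)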
FGF22 binding = shifts melting point of recombinant human FGF22. Q9HCT0. recombinant FGF22 thermal shift, SYPRO orange fluorescence; percent of sucrose octasulfate shift, DMSO zero. calls only at 9.99 µM. actives 1.5% (n = 340,000);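 active = melting point raised past a set limit in the mean and every replicate; three in four hits are not shown here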
Beta2AR agonist = agonists of human beta-2 adrenergic receptor inducing internalization; Am2.2-beta2AR cells, FAP receptor internalization, flow cytometry; reference of the scale not given here; actives 0.43% (n = 340,000); AID 504454; response, % (concentration not given with the values); P07550;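 active = response above a set limit, near 3 SD of response in nonfluorescent compounds, cut at about 42% in these data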;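 note: stock transfer was 100 nL into about 11 µL; a reference agonist was the positive control; negative values mostly stem from fluorescent compounds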
ALR inh = blocks human ALR sulfhydryl oxidase activity | P55789 | actives 3.8% (n = 290,000) | inhibition, % (no concentration beside the values) | purified ALR, DTT oxidation, H2O2 HRP-luminol luminescence | AID 485317;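 active = mean and each replicate at 75% or more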;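 note: stock transfer was 7.5 nL into about 7.5 µL; 0% = neutral wells and 100% = wells with inactivated enzyme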
LANA-H2B inh = blocks KSHV LANA binding to histone H2A/H2B | Q9QR71 | actives 0.6% (n = 320,000) | inhibition, % (test concentration not listed) | cell-free LANA-H2A/H2B peptide, fluorescence polarization; in the data active = inhibition mostly above about 10%, no sharp cut-off; inactive = mostly below about 6.7%;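 note: stock transfer was 7.5 nL into about 10 µL; 0% = median of vehicle wells and 100% = median of positive control wells; one replicate is shown; the record names a cut of 25% in any replicate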
Target sequence (Q9QR71 whole entry, looked up): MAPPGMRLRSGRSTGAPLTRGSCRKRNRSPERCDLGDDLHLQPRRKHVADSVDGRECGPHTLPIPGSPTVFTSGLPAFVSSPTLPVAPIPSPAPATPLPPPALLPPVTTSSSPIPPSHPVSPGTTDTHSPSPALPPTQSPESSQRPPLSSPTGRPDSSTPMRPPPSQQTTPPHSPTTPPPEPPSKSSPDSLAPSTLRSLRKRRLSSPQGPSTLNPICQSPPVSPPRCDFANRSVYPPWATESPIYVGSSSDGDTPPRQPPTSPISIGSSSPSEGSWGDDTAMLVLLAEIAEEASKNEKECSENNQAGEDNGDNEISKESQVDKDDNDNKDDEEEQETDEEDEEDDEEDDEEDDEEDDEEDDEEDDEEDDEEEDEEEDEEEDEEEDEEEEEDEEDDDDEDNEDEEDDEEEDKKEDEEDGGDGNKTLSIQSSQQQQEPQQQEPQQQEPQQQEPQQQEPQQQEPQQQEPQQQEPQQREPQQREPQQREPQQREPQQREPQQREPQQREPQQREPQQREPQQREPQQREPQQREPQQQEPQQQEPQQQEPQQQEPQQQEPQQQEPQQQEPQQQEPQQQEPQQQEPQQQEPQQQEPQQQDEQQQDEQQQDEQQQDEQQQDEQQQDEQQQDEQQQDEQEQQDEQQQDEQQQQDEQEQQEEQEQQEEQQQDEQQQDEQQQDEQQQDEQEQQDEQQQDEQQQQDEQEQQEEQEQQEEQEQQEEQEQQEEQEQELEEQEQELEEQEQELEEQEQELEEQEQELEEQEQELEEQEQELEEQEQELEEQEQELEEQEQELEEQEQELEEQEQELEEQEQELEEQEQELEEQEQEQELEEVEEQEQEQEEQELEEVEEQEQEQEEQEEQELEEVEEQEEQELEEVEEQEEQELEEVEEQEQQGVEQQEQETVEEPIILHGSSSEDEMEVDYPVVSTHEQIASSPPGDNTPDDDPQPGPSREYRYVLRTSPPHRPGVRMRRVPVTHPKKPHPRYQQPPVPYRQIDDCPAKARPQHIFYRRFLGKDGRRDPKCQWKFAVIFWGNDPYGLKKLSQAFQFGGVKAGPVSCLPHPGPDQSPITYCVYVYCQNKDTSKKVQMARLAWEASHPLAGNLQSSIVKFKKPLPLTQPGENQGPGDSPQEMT
Ecoli growth = inhibitors of Escherichia coli growth; OD600, 23 h; stronger effect = lower value; OD600 absorbance (concentration not given with the values); actives 0.21% (n = 330,000);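 active = OD600 absorbance below the run mean of sample wells minus 3.6 SD, in any replicate, cut at about 0.56 in these data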;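 note: stock transfer was 300 nL into about 60 µL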
HNF4A DNA FP = change in binding of human HNF4 alpha to DNA; actives 0.3% (n = 360,000); AID 1224865; P41235; HNF4a-FITC DNA binding, fluorescence polarization, 1 h; activity change, % at 10 µM; in the data active = activity change above about 30%, passing the limit was not always enough;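 note: controls were the assay level and a saturating level of protein; the project sought stronger binding though the title names inhibitors; some compounds called inactive have numbers as strong as hits; positive values seem to mean higher polarization but the record does not say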
* marks the source's active call; other numbers are inactive results.

How did COc1cccc(OC)c1NC(=O)CN1CCN(C)CC1 do in these assays?
UCH37 inh: 3.6; FGF22 binding: inactive; Beta2AR agonist: -6; ALR inh: 3; LANA-H2B inh: -5.0; Ecoli growth: 0.68; HNF4A DNA FP: -1.8

Results for Cc1ccc(OCc2ccc(C(=O)O)o2)c([N+](=O)[O-])c1 ?
FGF22 binding: inactive; Beta2AR agonist: 7; ALR inh: 53; LANA-H2B inh: 0.2; HNF4A DNA FP: -0.9

Results for COC(=O)C1=C(C)N(CCCC(=O)O)C(=O)NC1c1cccc2ccccc12 (centres undefined) ?
UCH37 inh: 4.9; FGF22 binding: inactive; Beta2AR agonist: 1; ALR inh: -2; LANA-H2B inh: -4.8; HNF4A DNA FP: 2.3

What do the screens show for `CCC(c1nnnn1Cc1ccco1)N(Cc1cc2cc(OC)ccc2[nH]c1=O)C1CCCCC1` (centres undefined)?
UCH37 inh: 1.5; Beta2AR agonist: 0; ALR inh: 2; LANA-H2B inh: 1.4; Ecoli growth: 0.73; HNF4A DNA FP: 36

Results for O=C(NC1CC1)c1cccc(Oc2ccccc2)c1 ?
UCH37 inh: 2.2; FGF22 binding: inactive; Beta2AR agonist: -4; ALR inh: -9; LANA-H2B inh: 4.0; Ecoli growth: 0.62; HNF4A DNA FP: -1.4

What do the screens show for `NS(=O)(=O)c1cccc(NC(=O)/C=C/c2cccs2)c1`?
UCH37 inh: 6.2; FGF22 binding: inactive; Beta2AR agonist: 9; ALR inh: 42; LANA-H2B inh: 2.3; Ecoli growth: 0.72; HNF4A DNA FP: -0.3

What do the screens show for `CC(=O)c1cccc(NC(=O)NC2CCCc3ccccc32)c1` (centres undefined)?
UCH37 inh: 4.6; FGF22 binding: inactive; Beta2AR agonist: -2; ALR inh: -4; LANA-H2B inh: -2.5; Ecoli growth: 0.67; HNF4A DNA FP: -3.1

Results for COc1ccc2oc(C(=O)N(C)Cc3ccc(OC(F)F)cc3)c(C)c2c1 ?
UCH37 inh: -0.7; FGF22 binding: inactive; Beta2AR agonist: -8; ALR inh: -8; LANA-H2B inh: 8.8; Ecoli growth: 0.73; HNF4A DNA FP: 2.0

How did CC(C)CCNC(=O)C1CC(=O)N(C2CCCC2)C1 (centres undefined) do in these assays?
UCH37 inh: -0.9; Beta2AR agonist: -4; ALR inh: -1; LANA-H2B inh: 0.2; Ecoli growth: 0.76; HNF4A DNA FP: 3.6

Results for N#Cc1cc(Cl)c(N2CCOCC2)cc1C#N ?
UCH37 inh: 0.7; Beta2AR agonist: 3; ALR inh: -1; LANA-H2B inh: 1.0; Ecoli growth: 0.72; HNF4A DNA FP: -0.5

Results for CCOc1ccc2nc(N3CCC(C(=O)Nc4nnc(CC)s4)CC3)sc2c1 ?
UCH37 inh: 4.3; FGF22 binding: inactive; Beta2AR agonist: -3; ALR inh: -24; LANA-H2B inh: -1.5; Ecoli growth: 0.76; HNF4A DNA FP: 1.5

What do the screens show for `COc1cc2nc(Nc3ccc(F)cc3)nc(N)c2cc1OC`?
UCH37 inh: -15; FGF22 binding: inactive; Beta2AR agonist: 5; ALR inh: 19; LANA-H2B inh: -5.7; Ecoli growth: 0.63; HNF4A DNA FP: 0.3

Results for O=c1[nH]c2ccc(S(=O)(=O)NCc3ccccc3)cc2[nH]1 ?
UCH37 inh: 1.6; FGF22 binding: inactive; Beta2AR agonist: -7; ALR inh: -12; LANA-H2B inh: 1.7; Ecoli growth: 0.72; HNF4A DNA FP: -1.8

Results for Cc1nc(Nc2ccc(S(N)(=O)=O)cc2)sc1C(=O)Nc1ccccc1 ?
UCH37 inh: 21*; FGF22 binding: inactive; Beta2AR agonist: -7; ALR inh: 5; LANA-H2B inh: -0.9; Ecoli growth: 0.69; HNF4A DNA FP: 3.9

What do the screens show for `CCCNC(=S)N1CCN(C(c2ccccc2)c2ccccc2)CC1`?
UCH37 inh: 2.1; Beta2AR agonist: 1; ALR inh: -8; LANA-H2B inh: 4.5; Ecoli growth: 0.66; HNF4A DNA FP: 0.2

What do the screens show for `Cc1cccc(N2C(=O)C(O)=C(C(=O)c3cccs3)C2c2ccc(C(C)C)cc2)n1` (centres undefined)?
UCH37 inh: 7.3; FGF22 binding: inactive; Beta2AR agonist: -2; ALR inh: 98*; LANA-H2B inh: -3.4; Ecoli growth: 0.71; HNF4A DNA FP: 3.5

What do the screens show for `CC1CCC(NC(=O)CNC(=O)c2ccc3ccccc3c2)CC1` (centres undefined)?
UCH37 inh: 0.1; FGF22 binding: inactive; Beta2AR agonist: -2; ALR inh: -7; LANA-H2B inh: 12; Ecoli growth: 0.69; HNF4A DNA FP: -0.4

Results for O=C(NCCc1ccccn1)c1n[nH]c(=O)c2ccccc12 ?
UCH37 inh: 2.5; Beta2AR agonist: -7; ALR inh: -12; LANA-H2B inh: 1.4; Ecoli growth: 0.67; HNF4A DNA FP: 5.8

How did CCC(C(=O)c1ccc2ncccc2c1)c1ccccc1 (centres undefined) do in these assays?
UCH37 inh: 2.5; FGF22 binding: inactive; Beta2AR agonist: -1; ALR inh: -17; LANA-H2B inh: 3.0; Ecoli growth: 0.68; HNF4A DNA FP: -1.2

Results for COCC1CCN(C(=O)c2ccc3oc(CCCc4ccccc4)nc3c2)C1 (centres undefined) ?
UCH37 inh: 0.8; FGF22 binding: inactive; Beta2AR agonist: -12; ALR inh: 3; LANA-H2B inh: -2.0; Ecoli growth: 0.66; HNF4A DNA FP: -1.4

The final 2 records of the section before lead into the next:
How did CCC(C(=O)c1ccc2ncccc2c1)c1ccccc1 (centres undefined) do in these assays?
UCH37 inh: 2.5; FGF22 binding: inactive; Beta2AR agonist: -1; ALR inh: -17; LANA-H2B inh: 3.0; Ecoli growth: 0.68; HNF4A DNA FP: -1.2

Results for COCC1CCN(C(=O)c2ccc3oc(CCCc4ccccc4)nc3c2)C1 (centres undefined) ?
UCH37 inh: 0.8; FGF22 binding: inactive; Beta2AR agonist: -12; ALR inh: 3; LANA-H2B inh: -2.0; Ecoli growth: 0.66; HNF4A DNA FP: -1.4

What do the screens show for `C=CCN1C(=O)C(CC(=O)Nc2ccc(OC)cc2)N(Cc2ccco2)C1=S` (centres undefined)?
UCH37 inh: 2.9; Beta2AR agonist: 1; ALR inh: -9; LANA-H2B inh: 0.3; Ecoli growth: 0.77; HNF4A DNA FP: -1.8

Results for CC(C)NC(=O)CN(Cc1ccc(F)cc1)C(=O)CCC(=O)Nc1nccs1 ?
UCH37 inh: 1.5; FGF22 binding: inactive; Beta2AR agonist: -1; ALR inh: -1; LANA-H2B inh: 2.0; Ecoli growth: 0.7; HNF4A DNA FP: 0.3

Results for Clc1cccc(-c2nnc(-c3ccno3)o2)c1 ?
UCH37 inh: 0.3; FGF22 binding: inactive; Beta2AR agonist: -2; ALR inh: 16; LANA-H2B inh: -3.4; Ecoli growth: 0.6; HNF4A DNA FP: -3.5

What do the screens show for `O=C(CC1C(=O)NCCN1Cc1c(F)cccc1Cl)NCCc1ccccn1` (centres undefined)?
UCH37 inh: -0.2; FGF22 binding: inactive; Beta2AR agonist: -4; ALR inh: -2; LANA-H2B inh: 5.5; Ecoli growth: 0.68; HNF4A DNA FP: -3.2

How did O=C(c1cnccn1)N(Cc1cccs1)C1(C(=O)NC2CCCC2)CCCCC1 do in these assays?
UCH37 inh: 2.5; Beta2AR agonist: 5; ALR inh: -1; LANA-H2B inh: 3.4; Ecoli growth: 0.69; HNF4A DNA FP: 1.5

How did COC(=O)c1c(N2C(=O)CCC2=O)sc2c1CCCC2 do in these assays?
UCH37 inh: 0.5; FGF22 binding: inactive; Beta2AR agonist: 2; ALR inh: -2; LANA-H2B inh: -0.1; Ecoli growth: 0.7; HNF4A DNA FP: 0.8

Results for O=C(O)CC(CNS(=O)(=O)c1ccccc1)c1ccccc1 (centres undefined) ?
UCH37 inh: 3.5; FGF22 binding: inactive; Beta2AR agonist: -3; ALR inh: -8; LANA-H2B inh: 1.5; Ecoli growth: 0.71; HNF4A DNA FP: -1.8

Results for COC(=O)C1CSC(C(=O)OC)N1C(=O)Nc1ccccc1 (centres undefined) ?
UCH37 inh: 2.3; Beta2AR agonist: 5; LANA-H2B inh: 3.9; Ecoli growth: 0.67; HNF4A DNA FP: -2.2

How did CC(C)CNC(=O)CSc1ccc(S(=O)(=O)N(C)C2CCCCC2)cn1 do in these assays?
UCH37 inh: -0.4; FGF22 binding: inactive; Beta2AR agonist: -3; Ecoli growth: 0.68; HNF4A DNA FP: -7.0

How did COc1ccc(CN2C(=O)c3cccnc3C2=O)cc1S(=O)(=O)NC1CCCCC1 do in these assays?
UCH37 inh: -2.3; FGF22 binding: inactive; Beta2AR agonist: -2; ALR inh: -4; LANA-H2B inh: -6.6; Ecoli growth: 0.71; HNF4A DNA FP: 0.4

2 compounds picked at random from those above:
How did CC(C)CCNC(=O)C1CC(=O)N(C2CCCC2)C1 (centres undefined) do in these assays?
UCH37 inh: -0.9; Beta2AR agonist: -4; ALR inh: -1; LANA-H2B inh: 0.2; Ecoli growth: 0.76; HNF4A DNA FP: 3.6

Results for O=C(NC1CC1)c1cccc(Oc2ccccc2)c1 ?
UCH37 inh: 2.2; FGF22 binding: inactive; Beta2AR agonist: -4; ALR inh: -9; LANA-H2B inh: 4.0; Ecoli growth: 0.62; HNF4A DNA FP: -1.4

Next part:
How did COc1ccc(NC(=O)c2cc(=O)[nH]c3ccccc23)cc1 do in these assays?
UCH37 inh: 3.6; FGF22 binding: inactive; Beta2AR agonist: 1; ALR inh: -3; LANA-H2B inh: 2.3; Ecoli growth: 0.67; HNF4A DNA FP: 0.9

How did O=C1c2ccccc2C(=O)N1c1ccccc1S(=O)C(F)(F)F (centres undefined) do in these assays?
UCH37 inh: -0.5; Beta2AR agonist: 0; ALR inh: -4; LANA-H2B inh: 0.2; Ecoli growth: 0.67; HNF4A DNA FP: -1.5

How did Cc1nc2sc(C(c3ccco3)N3CCN(c4ccc(F)cc4)CC3)c(O)n2n1 (centres undefined) do in these assays?
UCH37 inh: 7.5; FGF22 binding: inactive; Beta2AR agonist: -3; ALR inh: 94*; LANA-H2B inh: 0.0; Ecoli growth: 0.78; HNF4A DNA FP: 3.4

Results for COc1ccc(C(=O)NCCC(=O)NCc2cc(=O)n(C)c(=O)n2C)cc1 ?
UCH37 inh: 0.7; FGF22 binding: inactive; Beta2AR agonist: 0; ALR inh: -3; LANA-H2B inh: 0.1; Ecoli growth: 0.68; HNF4A DNA FP: 1.8

Results for CCc1ccc(OCC(=O)Nc2ccc(S(=O)(=O)Nc3ccccn3)cc2)cc1 ?
UCH37 inh: -3.6; FGF22 binding: inactive; Beta2AR agonist: 7; ALR inh: -11; LANA-H2B inh: -0.7; Ecoli growth: 0.7; HNF4A DNA FP: 2.0

How did COc1ccccc1CNC(=O)CN1CCN(Cc2ccc(Cl)cc2)C1=O do in these assays?
UCH37 inh: 3.3; FGF22 binding: inactive; Beta2AR agonist: -1; Ecoli growth: 0.68; HNF4A DNA FP: 2.3

What do the screens show for `CS(=O)(=O)N(CC(=O)Nc1ccccc1C(=O)N1CCOCC1)c1ccc(Cl)cc1`?
UCH37 inh: 3.3; FGF22 binding: inactive; Beta2AR agonist: -5; ALR inh: -3; LANA-H2B inh: 3.1; Ecoli growth: 0.65; HNF4A DNA FP: -1.1

Results for Oc1cccc(NC(=S)N=Nc2c(O)[nH]c3ccccc23)c1 ?
UCH37 inh: 6.8; FGF22 binding: inactive; Beta2AR agonist: 0; ALR inh: 99*; LANA-H2B inh: -2.4; Ecoli growth: 0.67; HNF4A DNA FP: 1.8

Results for COc1ccc(CCNC(=O)Cc2cccs2)cc1 ?
UCH37 inh: 1.3; FGF22 binding: inactive; Beta2AR agonist: -2; ALR inh: -7; LANA-H2B inh: -6.3; Ecoli growth: 0.68; HNF4A DNA FP: -3.2

Results for CCCN1CCN(C(=S)Nc2sc(CC)cc2C(=O)OC)CC1 ?
UCH37 inh: -0.8; FGF22 binding: inactive; Beta2AR agonist: -6; ALR inh: 19; LANA-H2B inh: -0.7; Ecoli growth: 0.65; HNF4A DNA FP: -1.1

Source: PubChem BioAssay (several laboratories)

This is a subset. The share of hits here may be higher or lower than overall.
